# Mtb growth: Mycobacterium tuberculosis H37Rv growth inhibition, cell based, confirmatory dose response (AID 1949); 1.6% of 100,000 active; M. tuberculosis H37Rv growth inhibition; inhibition, % at 10 µg/mL, or IC50 in µg/mL where a hit was titrated; most inactive calls were filed without a number and no value below 0 was filed;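 active = confirmed in a dose series; inconclusive = about 50% or more but not retested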;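 also: bacteria grown 7 days with compound before Alamar blue readout; 0% = untreated bacteria and 100% = reference antibiotic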
# An asterisk follows results filed as active; i = inactive; ? = inconclusive. Not all compounds are listed (hit frequency here may not be typical).
SMILES,Mtb growth
CC(=O)Nc1nnc(CCCOc2ccc(Cl)cc2Cl)s1,i
O=C(Cc1ccccc1)Oc1ccc(Cl)cc1Br,i
O=C(NCc1cccnc1)C1c2ccccc2Oc2ccccc21,i
Cn1nnc(NC(=O)c2ccc(C#N)cc2F)n1,i
Cc1ccccc1OCCOCCN1CCCCCC1,i
COC(=O)c1ccc(NC(=O)c2ccc(NC(=O)C(C)C)cc2)cc1,i
C=CCc1cccc2cc(C(=O)N3CCN(c4cccc(Cl)c4)CC3)c(=O)oc12,1.5%
CCOC(=O)C1CCN(C(=O)C(CC)c2ccccc2)CC1 (stereo not given),i
CCOC(=O)c1ccc(NC(=S)NNC(=O)c2cc(C(C)C)cc(C(C)C)c2O)cc1,i
CC(=O)Nc1ccccc1-c1ccccc1[N+](=O)[O-],i
O=[N+]([O-])c1cc(C(F)(F)F)ccc1NCCNS(=O)(=O)c1ccc2ccccc2c1,i
CCc1cccc(NC(=O)Nc2ccccc2)c1,i
NC(=NC(=O)c1ccc(Cl)cc1)N1N=CCC1c1ccccc1 (stereo not given),13.4%
CCOc1ccccc1NC(=O)C(=O)N1CCCCC1,6.8%
Cc1ccc(C(=O)CNc2ccc(C)cc2C)cc1,0.3%
CCOc1ccccc1Oc1ccc(C(F)(F)F)cn1,i
O=C(Nc1ccc(Br)cn1)Nc1ccccc1C(F)(F)F,i
O=C(CSc1nnc(CNC(=O)c2ccc(Cl)cc2)n1-c1ccccc1)Nc1cccc(C(F)(F)F)c1,i
CCOC(=O)c1ccc(NC(=O)CSc2nnc(C(NC(=O)c3ccc(Cl)cc3Cl)C(C)C)n2CC)cc1 (stereo not given),4.1%
O=C(NCCc1ccccc1)Nc1ccc(NC(=O)NCCc2ccccc2)cc1,i
CCn1c(CSCc2ccccc2)nnc1SCC(=O)Nc1nc(C)cs1,i
O=C(Nc1ccc(F)c(Cl)c1)N1CCN(c2ccc(F)cc2)CC1,1.1%
COc1ccc(CNC(=O)C2CCN(S(C)(=O)=O)CC2)cc1,i
COC(=O)c1ccc(Cl)c(NS(=O)(=O)c2ccc(OC)c(Cl)c2Cl)c1,i
CCc1cc(=O)oc2cc(OCc3cccc(Br)c3)c(Cl)cc12,i
O=C(Nc1nn[nH]n1)c1ccc(-c2ccccc2)cc1,i
COC(=O)c1ccccc1NC(=O)c1ccc(-c2ccc([N+](=O)[O-])cc2)o1,i
O=C(Nc1ccccn1)NC1CCS(=O)(=O)C1 (stereo not given),i
Cc1ccc(NC(=O)CSc2ccccc2)c(C(=O)O)c1,5.8%
COC(=O)CCN(C(=O)c1ccccc1Br)c1ccccn1,i
CCc1ccc(OC(=O)c2ccccc2[N+](=O)[O-])cc1,i
CC(C)(C)C(=O)NCCCNc1ccc([N+](=O)[O-])cc1,i
Cc1ccc(OCCCNC2CCCC2)c(I)c1,i
O=C(Nc1ccc(Cl)cc1)C1CCN(S(=O)(=O)c2ccccc2)CC1,3.5%
Cc1cccc(C)c1NC(=O)CN(c1ccc(Br)cc1)S(C)(=O)=O,i
COc1cccc(NC(=O)C(=O)N2CCCCC2)c1,2.0%
NS(=O)(=O)c1ccc(NC(=S)NC2CCCCC2)cc1,i
C=CCOc1ccc(CNn2nnnc2N)cc1,i
C=CCn1c2ccccc2c2nnc(SCc3cccc(Br)c3)nc21,i
CCc1ccc(OCC(=O)Nc2ccc3c(c2)N(C(C)=O)c2ccccc2CC3)cc1,i
COc1cc(COc2cc3oc(=O)c4c(c3cc2Cl)CCCC4)cc(OC)c1OC,2.9%
COC(=O)c1ccc(NC(=O)c2cc(-c3ccccn3)nc3ccccc23)cc1,1.5%
CC(C)(C)C(=O)NC(=S)NNC(=O)C(c1ccccc1)c1ccccc1,3.01µg/mL*
Cc1ccc(-c2csc3ncn(CC(=O)Nc4cc(Cl)ccc4Cl)c(=O)c23)cc1,33.1%
COC(=O)c1sc(NC(=O)COc2ccc(Cl)cc2Cl)c(C(=O)OC)c1C,i
CCCNC(=S)Nc1ccc(Nc2ccccc2)cc1,?
COc1ccccc1OCCCCN1CC(C)OC(C)C1 (stereo not given),i
CC(Sc1n[nH]c(=O)n1-c1ccccc1)C(=O)Nc1nccs1 (stereo not given),i
O=C(CN1C(=O)c2ccccc2C1=O)Nc1cccc(C(=O)c2ccccc2)c1,i
CS(=O)(=O)N(Cc1ccc(Cl)cc1)c1ccc(C(=O)Nc2ccccc2C(F)(F)F)cc1,i
CN1CCN(C(=O)c2ccc(-c3nn(C)c(=O)c4ccccc34)cc2)CC1,i
O=C1C(Cl)=C(N2CCN(c3ccccc3)CC2)C(=O)N1c1cccc(Cl)c1,?
Clc1cccc(CSc2nnc(-c3ccncc3)n2-c2ccc(Br)cc2)c1,i
Cn1c(Oc2ccccc2)nc2c1c(=O)n(Cc1ccc(Cl)cc1)c(=O)n2C,3.8%
CC1(C(=O)NNC(=S)NCC2CCCO2)CC1(Cl)Cl (stereo not given),i
CCN1C(=O)C2(c3ccccc31)c1c(oc3ccccc3c1=O)C(=O)N2CCc1ccc(OC)cc1 (stereo not given),i
Oc1ccc2c(c1)C1CCCCC1(N1CCCCC1)O2 (stereo not given),i
O=C(CSc1nc2ccccc2n1S(=O)(=O)c1ccccc1)c1ccc([N+](=O)[O-])cc1,i
Cc1cccnc1NC(=S)Nc1ccc(S(N)(=O)=O)cc1,i
Nc1cc(=O)[nH]c(=S)n1-c1cccc(C(F)(F)F)c1,i

# Further records follow.
SMILES,Mtb growth
COc1cccc(-n2c(-c3ccc(C(C)(C)C)cc3)n[nH]c2=S)c1,18.2%
O=C1c2ccccc2C(=O)N1n1c(=O)[nH]c2ccccc2c1=O,i
CCc1c(C)sc(NC(=S)NCc2cc(C)n(C)n2)c1C(=O)OC,i
COc1ccccc1NC(=O)CSc1n[nH]c(C)n1,i
Cc1cc(Cl)ccc1OC(C)C(=O)NCc1ccc2c(c1)OCO2 (stereo not given),?
Cc1c(C(=O)NCCCN2CCOCC2)oc2c1C(=O)CC(C)(C)C2,i
COc1cccc(C(=O)Nc2ccc(Cl)cc2C(F)(F)F)c1,i
C=CCn1c(COc2ccccc2Cl)nnc1SCC(=O)NC1CCCC1,0.2%
COc1ccccc1Nc1n[nH]c(=S)n1C(=O)c1cccs1,1.7%
COc1ccc(N2CC(=O)N/C2=N\c2nc(C)cc(C)n2)cc1OC,i
CN(C)c1cc(Nc2ccc(Cl)cc2)c([N+](=O)[O-])c2nonc12,i
CC(=O)Nc1c(C)cc(Cc2cc(C)c(NC(C)=O)c(C)c2)cc1C,i
O=C(CC(=O)Nc1ccccc1)Nc1ccccc1,i
O=C(CN(Cc1ccc(Cl)cc1)S(=O)(=O)c1ccc(Cl)cc1)NCC1CCCO1 (stereo not given),i
CS(=O)(=O)N(CC(=O)Nc1ccc(Oc2ccccc2)cc1)c1cc(Cl)ccc1Cl,i
COc1cccc(-c2cc(C(F)(F)F)n3nc(C)cc3n2)c1,3.3%
CC(C)C(=O)N1CCN(c2ccccc2NC(=O)COc2ccccc2Cl)CC1,1.4%
Cc1cc(N)nc(CNc2ccc(Cl)cc2)n1,i
Cc1ccc(OCC(=O)N2CCCCC2)c(C)c1,i
Cc1ccc(-n2c(SCC(=O)Nc3ccccc3C)nc3nc4c(cc3c2=O)COC(C)(C)C4)cc1,i
O=C(NCc1cnc(-c2ccccc2)s1)c1ccc([N+](=O)[O-])cc1,6.5%
Cc1cc(S(=O)(=O)NCCN2CCOCC2)ccc1Cl,i
COc1ccc(Cl)cc1NC(=O)CN(c1cccc(F)c1)S(C)(=O)=O,4.4%
CC(C)CNS(=O)(=O)c1ccc(CCC(=O)NCc2ccc(Cl)cc2)cc1,i
Clc1ccc(-n2ncc3c(Nc4ccccc4)ncnc32)cc1,7.0%
O=C(CC12CC3CC(CC(C3)C1)C2)Nc1ccc(N2CCCCC2)cc1,i
Cc1cc(C(F)F)n2nc(C(=O)Nc3sc4c(c3C(N)=O)CCC4)nc2n1,?
COc1ccc(N2C(=O)c3cccc4cccc(c34)C2=O)cc1OC,3.8%
COc1cccc(C2CC(C(F)(F)F)n3ncc(C(=O)NCc4ccco4)c3N2)c1 (stereo not given),i
Cc1nc(SCc2cccc([N+](=O)[O-])c2)nc2c1CCCC2,i
COc1ccc(OC(=O)COc2cc(C)ccc2C(C)C)cc1,9.5%
CC(=O)OC(C(=O)Oc1ccc2c(c1)C(C)=CC(C)(C)N2)c1ccccc1 (stereo not given),i
Cc1ccc(NC(=O)C2(c3ccc([N+](=O)[O-])cc3)CCCC2)cc1,3.8%
CCc1ccc(OCc2nnc(SCC(=O)c3ccc(Br)cc3)o2)cc1,5.5%
C=CCn1c(SCC(=O)NCc2ccccc2)nnc1-c1ccccc1O,i
Cc1ccc(C(=O)Nc2sc3c(c2C(=O)N2CCC(C(N)=O)CC2)CCCC3)cc1,i
COCCNC(=O)c1ccc(C(C)C)cc1,i
COC(=O)c1ccc(NC(=O)CS(=O)(=O)Cc2ccccc2)cc1,i
Cc1cc(C)c(OCC(=O)Nc2ccc(Br)cc2C(=O)O)cc1C,i
CCOc1ccc(N2C(=O)CC(Sc3ccccn3)C2=O)cc1 (stereo not given),i
CCc1ccc(N(CC(=O)NCC2CCCO2)S(=O)(=O)c2ccccc2)cc1 (stereo not given),i
C=CCn1c(SCC(=O)NCC2CCCO2)nc2scc(-c3ccco3)c2c1=O (stereo not given),i
O=C(NC1CCS(=O)(=O)C1)c1ccc(S(=O)(=O)N2CCOCC2)cc1 (stereo not given),i
COc1ccccc1Oc1nc2c(c(=O)n(Cc3ccccc3F)c(=O)n2C)n1C,i
O=C(CSc1ccc(Cl)cc1)OCC(=O)c1ccccc1,i

# 16 of the compounds above, with bars between the fields:
canonical_smiles | Mtb growth
Cc1cc(C(F)F)n2nc(C(=O)Nc3sc4c(c3C(N)=O)CCC4)nc2n1 | ?
COc1ccc(N2C(=O)c3cccc4cccc(c34)C2=O)cc1OC | 3.8%
COc1cccc(C2CC(C(F)(F)F)n3ncc(C(=O)NCc4ccco4)c3N2)c1 (stereo not given) | i
Cc1nc(SCc2cccc([N+](=O)[O-])c2)nc2c1CCCC2 | i
COc1ccc(OC(=O)COc2cc(C)ccc2C(C)C)cc1 | 9.5%
CC(=O)OC(C(=O)Oc1ccc2c(c1)C(C)=CC(C)(C)N2)c1ccccc1 (stereo not given) | i
Cc1ccc(NC(=O)C2(c3ccc([N+](=O)[O-])cc3)CCCC2)cc1 | 3.8%
CCc1ccc(OCc2nnc(SCC(=O)c3ccc(Br)cc3)o2)cc1 | 5.5%
C=CCn1c(SCC(=O)NCc2ccccc2)nnc1-c1ccccc1O | i
Cc1ccc(C(=O)Nc2sc3c(c2C(=O)N2CCC(C(N)=O)CC2)CCCC3)cc1 | i
COCCNC(=O)c1ccc(C(C)C)cc1 | i
COC(=O)c1ccc(NC(=O)CS(=O)(=O)Cc2ccccc2)cc1 | i
Cc1cc(C)c(OCC(=O)Nc2ccc(Br)cc2C(=O)O)cc1C | i
CCOc1ccc(N2C(=O)CC(Sc3ccccn3)C2=O)cc1 (stereo not given) | i
CCc1ccc(N(CC(=O)NCC2CCCO2)S(=O)(=O)c2ccccc2)cc1 (stereo not given) | i
C=CCn1c(SCC(=O)NCC2CCCO2)nc2scc(-c3ccco3)c2c1=O (stereo not given) | i

# Next part.
SMILES,Mtb growth
O=C(Cc1ccccc1)Nc1ccc(I)cc1F,i
O=C1CC(c2cccc(Cl)c2Cl)c2cc3c(cc2N1)CCC3 (stereo not given),0.6%
O=C(Nc1nccs1)c1ccc(CSc2nnc(-c3ccncc3)n2-c2ccccc2)cc1,i
COc1ccc(C(=O)Nc2n[nH]c(-c3ccncc3)n2)cc1,0.1%
Cc1ccc(NC(=O)C2CCCC2)nc1,i
Cc1cc(C)c(NC(=O)CC2Sc3ccccc3NC2=O)c(Cl)c1 (stereo not given),i
C=CCSc1nnc(CSc2nc3sc4c(c3c(=O)[nH]2)CCCC4)n1-c1ccccc1,i
O=C(NCCCn1ccnc1)c1ccccc1C(=O)c1ccccc1,i
CCCCC(=O)NC(=S)NNC(=O)c1ccc(C)c(Br)c1,2.79µg/mL*
CCOC(=O)c1nnn(-c2nonc2N)c1CN1CCC(C(=O)OCC)CC1,i
CCCCC(=O)Nc1ccc(NC(=O)COc2cc(C)ccc2C(C)C)cc1OC,i
CS(=O)(=O)N(CC(=O)N1CCC(Cc2ccccc2)CC1)c1cccc(F)c1,2.3%
O=c1[nH]c(-c2ccc(Cl)cc2)nc2ccccc12,0.0%
O=C(Nc1ccc2c(c1)OCCO2)c1ccc(NS(=O)(=O)c2ccccc2)cc1,4.0%
O=C(CC(c1ccccc1)c1ccccc1)Nc1ncccn1,i
FC(F)(F)c1nnc2n1Nc1nc3ccccc3nc1S2,4.52µg/mL*
COc1ccc(-n2nc3ccc(N)cc3n2)cc1Cl,i
Cc1cc(NC(=O)C(=O)NCC2CCCCC2)ccc1Br,i
CCCCc1ccc(NC(=O)CCS(=O)(=O)Cc2ccccc2)cc1,i
CC(C)Cn1c(SCC(=O)Nc2ccc(Cl)cc2)nnc1-c1ccncc1,i
COC(=O)c1cccc(NC(=S)N(Cc2ccccc2)Cc2ccccc2)c1,i
CC(C)CNC(=O)CC1Sc2ccc(C(F)(F)F)cc2NC1=O (stereo not given),i
Cc1[nH]nc2c1C1(C(=O)Nc3ccc(F)cc31)C(C#N)=C(N)O2 (stereo not given),i
COc1ccccc1NC(=O)CN1CCCCC1,i
COC(=O)C1=C(C)NC2=C(C(=O)CCC2)C1c1cccc(C(F)(F)F)c1 (stereo not given),0.7%
CCCCSc1ccc(NC(=O)c2cccnc2)cc1,i
COc1ccc(-c2cc(C(F)F)n3ncc(C(=O)N4CCN(c5ccccc5)CC4)c3n2)cc1,i
COc1ccc(S(=O)(=O)N2CCC(C(=O)Nc3cc(Cl)c(Cl)cc3Cl)CC2)cc1,22.9%
O=C1CCC(=O)N1c1ccc(Oc2ccc(Cl)cc2Cl)cc1,1.1%
COc1ccccc1Cn1c2ccccc2c2nc3ccccc3nc21,i
N#Cc1c(NC(=O)C(=O)NCC2CCCO2)sc2c1CCCC2 (stereo not given),i
O=C(CSc1nnc(-c2cccs2)n1-c1ccccc1)c1ccc(F)cc1,i
CCOC(=O)C1CCN(C(=O)CN(C)S(=O)(=O)c2cc(C)ccc2OC)CC1,4.3%
COc1cccc(C(=O)N2CCN(C(=O)c3ccc(-c4ccccc4)cc3)CC2)c1,i
CC(C)Oc1cccc(C(=O)Nc2ccc(C(C)C)cc2)c1,7.7%

# Screening data (PubChem)
